Screens as filed in PubChem BioAssay.
Vaccinia mCherry = vaccinia inhibition (mCherry reporter); Vaccinia virus mCherry reporter infection, fluorescence; about a quarter of the inactives have no number; AID 720579; actives 0.63% (n = 310,000); Potency, µM (highest dose often 36.5 µM), without a hit: at the highest dose activity change, negative = inhibition, most hits filed as inhibitors; active = well fitted inhibition curve with a large enough effect; inconclusive = small, poorly fitted or top-dose-only effect; inactive = no such curve, though single readings can be large or run the other way; tested in A549 cells; note: nearly all actives have a fitted effect of over 35% in size; inactives centre near -10
VACV Venus inh = inhibitors of vaccinia virus (Venus reporter); Vaccinia virus Venus reporter expression, fluorescence; Potency, µM (doses to about 36.5 µM), for inactives: at the highest dose activity change, negative = inhibition, usual class: inhibitors; actives 0.46% (n = 330,000); AID 720580; active means well fitted inhibition curve with a large enough effect; inconclusive means small, poorly fitted or top-dose-only effect; inactive means no such curve, though single readings can be large or run the other way; tested in A549 cells; note: nearly all actives have a fitted effect of over 30% in size; inactives centre near -10
* = called active by the depositor; i = inactive; ? = inconclusive; . = not tested or not shown; & = joins results of further samples; [ ] = dose if it differs, or a comment. % is set by controls: 0 for no effect and ±100 for the full control effect; potency is the fitted concentration of half-maximal effect.

Results follow in this order: Vaccinia mCherry, VACV Venus inh
- COc1ccc(N2C(N)=C(C#N)C(c3ccsc3)C3=C2CCCC3=O)c(OC)c1 (configuration not stated)
    -28%, -20%
- Nc1nnc(SCC(=O)NNC(=O)c2ccccc2F)s1
    -11%, -7%
- CCN(CC)S(=O)(=O)c1cc(C(=O)NC2=NCCS2)ccc1Cl
    -15%, -14%
- S=c1nc(-c2ccccc2)oc2c1CCCC2
    -12%, -6%
- O=C(c1ccccc1)C(c1ccccc1)c1ccccc1
    -10%, -6%
- O=C(CSc1nc(-c2ccccc2)nc2c1CCCC2)c1ccc(F)cc1
    -12%, -9%
- COc1ccc(OC)c(/C=C/C(=O)OCC(=O)Nc2ccc(Cl)c(S(=O)(=O)N(C)C)c2)c1
    i, -6%
- Cc1cnc(C(=O)OC(C)C(=O)c2c(C)[nH]c3ccccc23)cn1 (configuration not stated)
    i, 0%
- O=C(O)CSc1nc2ccc(Br)cc2[nH]1
    i, -12%
- CCOc1ccc(-c2nnc(SCC(=O)N3CCOCC3)o2)cc1
    ., -2%
- COc1ccc(Br)cc1CNC(=O)C1CCC(=O)N1C(C)C (configuration not stated)
    -13%, 2%
- C/C(=N\NC(=O)C1CC1)c1ccc(C)c(C)c1
    ?, -27%
- CCN(CC)C(=O)C(=O)c1cn(CC(=O)NCC2CCCO2)c2ccccc12 (configuration not stated)
    -5%, -9%
- COc1cc2ncc(S(=O)(=O)c3ccccc3)c(N3CCCC(C)C3)c2cc1OC (configuration not stated)
    ?, ?
- CCN(CC(=O)Nc1ccccc1C(F)(F)F)C(=O)CCSc1ccc(F)cc1
    -7%, ?

Brought forward from above: two compounds, then new ones.
Results follow in this order: Vaccinia mCherry, VACV Venus inh
- COc1cc2ncc(S(=O)(=O)c3ccccc3)c(N3CCCC(C)C3)c2cc1OC (configuration not stated)
    ?, ?
- CCN(CC(=O)Nc1ccccc1C(F)(F)F)C(=O)CCSc1ccc(F)cc1
    -7%, ?
- CSc1cccc(NC(=O)N2CCN(C)CC2)c1
    i, -9%
- C[C@H](CO)N1C[C@H](C)[C@@H](CN(C)S(=O)(=O)c2ccccc2)Oc2ccc(NC(=O)Nc3ccc(C(F)(F)F)cc3)cc2C1=O
    ?, ?
- CC1(C)CC2CC(C)(CN2C(=S)NC(=O)c2ccccc2Cl)C1 (configuration not stated)
    -15%, -13%
- CCCC(=O)N1CCCC(c2cc(C(=O)Nc3ccc4c(c3)OCO4)no2)C1 (configuration not stated)
    1%, 6%
- COCCCN1C(=O)c2ccc(C(=O)OCC(=O)N3CCN(c4ccccc4)CC3)cc2C1=O
    -21%, -15%
- COc1cc(CN2CCN(Cc3ccc(C)cc3)CC2)c([N+](=O)[O-])cc1OC
    i, -8%
- CS(=O)(=O)N(CC(=O)N/N=C/c1cccs1)c1cccc(Cl)c1Cl
    ., -19%
- CCCOc1ccc(N2C(=O)CC(N3CCN(CCN=CC4C(=O)CC(C)(C)CC4=O)CC3)C2=O)cc1 (configuration not stated)
    i, 0%
- CCNc1ccc(C(=O)OCC(=O)N2c3ccccc3NC(=O)C2(C)C)cc1[N+](=O)[O-]
    -11%, -14%
- O=C(NC1CCCCC1)N1CCCCCC1
    -6%, -3%
- CCSc1c(-c2ccccc2)nc2c(C)cccc2c1C(=O)O
    ., -9%
- Cc1noc(C)c1S(=O)(=O)N(C)C[C@H]1OCCCC[C@@H](C)Oc2ccc(NC(=O)CCCN(C)C)cc2C(=O)N([C@H](C)CO)C[C@@H]1C
    -3%, -10%
- COc1ccc(C2C3=C(CCCC3=O)Nc3nc(C(F)(F)F)nn32)c(OC)c1OC (configuration not stated)
    ., -28%
- CC(C)[C@H](NC(=O)OC(C)(C)C)c1cc(C(=O)NC2CC2)c(N)s1
    ?, -15%
- Cn1cccc1Cc1nnc(SCC(=O)NC2CCCC2)n1-c1ccc(F)cc1
    -4%, 7%

Results follow in this order: Vaccinia mCherry, VACV Venus inh
- CCOc1ccc(-n2c(SCC(N)=O)nc3sc4c(c3c2=O)CCN(C)C4)cc1
    i, -4%
- Cc1oc(S(=O)(=O)N2CCOCC2)cc1C(=O)Nc1ccc(F)cc1
    -4%[7.34 µM], 1%[7.34 µM]
- CC1CC(c2ccccc2)n2nc(NC(=O)CCc3ccccc3)nc2N1 (configuration not stated)
    ., ?
- Cn1c(CNC(=O)C(Cc2ccccc2)NC(=O)c2ccccc2)cc(=O)n(C)c1=O (configuration not stated)
    -17%, -16%
- COc1cc(/C=N/n2cnnc2)ccc1OCC(=O)N1CCOCC1
    -7%, -4%
- CC(C)CC(=O)NC(=S)Nc1nc(-c2cccc3ccccc23)cs1
    -10%, -27%
- Cc1cc(C)n2nc(SCc3ncc(-c4ccccc4)o3)nc2n1
    -2%, -11%
- Cc1nn2c(NCCN(C)C)c3c(nc2c1-c1ccccc1)CCCC3
    -25%, -13%
- CC(C)(CNC(=O)c1ccc([N+](=O)[O-])c(Cl)c1)CNC(=O)c1ccc([N+](=O)[O-])c(Cl)c1
    ., -12%
- CC(=O)c1ccc(NC(=O)CCCN2C(=O)/C(=C/C(C)=C/c3ccccc3)SC2=S)cc1
    i, 0%
- NC(=O)CSc1nc2ccccc2nc1SCC(N)=O
    i, -10%
- Cc1ccc(C(=O)COC(=O)c2n[nH]c(=O)c3ccccc23)cc1
    ., -13%
- CCC(C)(C)NC(=O)C(c1ccncc1)N(C(=O)c1sc(C)nc1C)c1ccc(F)cc1 (configuration not stated)
    -1%, -12%
- O=C(Cn1cc([N+](=O)[O-])cn1)NCC1CCCO1 (configuration not stated)
    i, -15%
- O=C(COC(=O)CNC(=O)c1ccc(F)cc1)Nc1cccc(S(=O)(=O)N2CCCC2)c1
    i, -6%

Results follow in this order: Vaccinia mCherry, VACV Venus inh
- Cc1ccc2nc(SCC(=O)NCc3ccco3)nc(=O)n2c1
    -4%, -17%
- O=C(NCc1cccs1)C(=O)c1cn(CC(=O)N2CCOCC2)c2ccccc12
    i, -7%
- COc1ccc(/C=C/C(=O)Nc2ccc3nc4c(c(Nc5ccc(OC)c(OC)c5)c3c2)CCCC4)cc1
    ?, ?
- COc1ccc(-n2nc(C(=O)NCC(=O)NC3CCCC(C)C3C)c3ccccc3c2=O)cc1 (configuration not stated)
    -12%, -8%
- Cc1ccc(CNC(=O)Cc2c(C)c3c(cc(C)c4c(C)coc43)oc2=O)cc1
    -7%, -9%
- CC1=C(C(=O)Nc2cccnc2)C(c2cccc(F)c2)n2nc(SCc3ccccc3)nc2N1 (configuration not stated)
    -5%, -7%
- CCc1nn(C(CC)C(=O)NCCCc2ccccc2)c(=O)c2cc3occc3n12 (configuration not stated)
    0%, -22%
- O=C(CSc1nc2ccccc2n1Cc1ccccc1)N1CCN(c2ccc(F)cc2)CC1
    -20%, -23%
- COc1ccccc1C(=O)Nc1nnc([C@@H]2C[C@H](O)[C@@H](CO)O2)s1
    i, -21%
- O=C(N/N=C/c1ccccc1O)NC12CC3CC(CC(C3)C1)C2
    ?, -26%
- COc1ccc(-c2sc3ccc(N4CCOCC4)cc3c2C#CCCO)cc1
    -16%, ?
- COc1ccc2c(c1)c1c(c(=O)n(-c3ccc(F)c(Cl)c3)c(=O)n1Cc1ccccc1F)n2C
    2%, 6%
- Cc1nnc2sc(-c3ccc(-c4ccc(Cl)c(C(F)(F)F)c4)o3)nn12
    -11%, 4%
- Nc1nc(SCCO)[nH]c(=O)c1NC(=O)c1ccc(Br)o1
    -6%, -12%
- COC(=O)c1sccc1NC(=O)CC1C(=O)NCCN1C(=O)Nc1ccccc1 (configuration not stated)
    i, -5%

Results follow in this order: Vaccinia mCherry, VACV Venus inh
- CC1(C)N=C(N)N=C(N)N1c1ccc(OCC(=O)N2CCOCC2)cc1
    i, -17%
- COc1c(OC)c(O)c2c(=O)c(O)c(-c3ccccc3)oc2c1OC
    i, -1%
- COc1cc(SC)ccc1C(=O)N(Cc1ccccc1)c1ccccn1
    i[7.34 µM], 4%[7.34 µM]
- CCCN1CCC(Oc2cccc(C(=O)NCCc3ccccc3)c2)CC1
    -21%, -27%
- CCCCc1cc(=O)oc2c(C)c(OCC(=O)N3CCC(C(=O)O)(c4ccccc4)CC3)ccc12
    3%, 1%
- COc1cccc(C(C#N)N2N=C(C)CC2(C)C)c1O (configuration not stated)
    -13%, -5%
- CCN(N=O)c1ccc(/C=C/c2ccnc3ccccc23)cc1
    -27%, -20%
- COC(=O)c1cccnc1-n1c(=O)c2cccnc2n(CC(=O)Nc2c(C)cc(C)cc2C)c1=O
    6%, 0%
- CCOC(=O)N1CCc2c(sc3nc4n(c(=O)c23)N=C(c2ccc(OC)cc2)CS4)C1
    i, -5%
- O=C1c2ccccc2C(=O)N1CCCCON1C(=O)c2ccccc2C1=O
    i, -10%
- Cc1c(C(=O)N(C)C)sc2c1c(=O)n(-c1ccc(Cl)cc1)c(=O)n2CC(=O)C(C)(C)C
    5%, -3%
- Cc1nc(NC(=S)NC(=O)c2cccs2)ccc1Br
    i, -10%
- CCN1CC(CN(C)Cc2nc(-c3ccco3)oc2C)CC1=O (configuration not stated)
    i, 3%
- Cc1ccc(-n2nnc(-c3nsc(NC(=O)c4ccccc4)n3)c2C)cc1
    -2%, -3%
- COc1cc(OC)c(NC(=O)c2ccc(Br)o2)cc1Cl
    ., ?

Results follow in this order: Vaccinia mCherry, VACV Venus inh
- CC1(C(=O)NS(=O)(=O)c2ccc(F)cc2F)CCN1C(=O)C/C=C/c1ccccc1 (configuration not stated)
    -8%, 0%
- CCOC(=O)c1ccc(Oc2c(C)oc3cc(OS(C)(=O)=O)ccc3c2=O)cc1
    -19%, -13%
- CCn1c(=O)n(CC(=O)Nc2ccc(F)cc2)c(=O)c2ccccc21
    -2%, -17%
- Cn1c(SCC(=O)Nc2sccc2C#N)nnc1C1CC1
    -15%, -6%
- CCN(c1ccccc1)S(=O)(=O)c1ccc(F)c(C(=O)Nc2ccc(C)cc2)c1
    -12%, -13%
- CCCCCC(=O)O/N=C(\C)c1ccn(S(=O)(=O)c2ccccc2)c1
    i, -10%
- CCc1cc2cccc(C)c2nc1SCC(=O)N1CCN(C(=O)c2ccco2)CC1
    ., -14%
- CCCCOC(=O)Nc1ccc(S(=O)(=O)Nn2cnnc2)cc1
    -13%, 2%
- CCCN1CCC(=O)N([C@H](CN=[N+]=[N-])Cc2ccccc2)CC1
    ?, -1%&-5%
- COC(=O)C1=C(c2ccc3ccccc3c2)C[C@@H]2CC[C@H]1N2C(=O)NCc1ccco1
    -2%, -12%
- O=S(=O)(N1CCCCC1)n1nnc2ccccc21
    i, -2%
- CCOC(=O)C(CSCc1ccccc1)NC(=O)OC(C)(C)C (configuration not stated)
    ., -28%
- COc1ccc(Nc2cc(Sc3ccc(OC)cc3)ncn2)cc1
    ?, -19%
- CC1CCN(S(=O)(=O)c2ccc3c(c2)N(CC(=O)O)C(=O)CO3)CC1
    -4%, -20%
- COCC(O)CNc1ccccc1 (configuration not stated)
    -11%, -4%

Results follow in this order: Vaccinia mCherry, VACV Venus inh
- Clc1ccc(CN2C3=NCCN3c3ccccc32)cc1
    ., 11%
- O=C(O)Cc1sc(Nc2ccccc2)nc1-c1ccccc1
    -18%, -18%
- CCc1ccc(NC(=S)N2CCNC(=O)C2CC(=O)OC)cc1 (configuration not stated)
    i, -9%
- CCCOc1ccc(-c2c(C(=O)N/N=C/c3ccc(OC)cc3)nnn2-c2nonc2N)cc1
    -23%, -15%
- Cc1ccc(-n2c(-c3ccco3)nc3c(cnn3-c3ccccc3Cl)c2=O)cc1
    -11%, -8%
- CCn1c(Cc2ccccc2)nnc1SCC(=O)OC(C)C
    -10%, -8%
- COc1ccc(Cl)cc1NC(=O)CN1C(=O)CC(C)S(=O)(=O)c2ccccc21 (configuration not stated)
    -9%, -12%
- O=C(N=Nc1c(O)[nH]c2ccccc12)c1ccc2c(c1)OCO2
    i, -18%
- CCCC(=O)NC(c1cccs1)c1cc([N+](=O)[O-])c2cccnc2c1O (configuration not stated)
    ?, -26%
- O=C(OCc1ccccc1)c1cnc(Cl)c(Cl)c1
    -2%, 3%
- O=C(CN1C(=O)S/C(=C\c2ccc(O)cc2)C1=O)c1ccccc1
    -23%, -7%
- CCOCCCNC(=O)/C(C#N)=C/c1ccccc1F
    -22%, -7%
- COC(=O)/C=C1\N/C(=N\c2nc(C)cc(C)n2)N(c2ccc(Cl)cc2)C1=O
    ?, -14%
- Cc1nnc2n1NC(c1ccc(Cl)cc1)C(C(=O)N1CCC(C)CC1)S2 (configuration not stated)
    -18%[1.46 µM], -17%
- O=C(/C=C/c1ccccc1)c1ccccc1
    -5%, -6%

One compound at a time, from the list above.
`CCCC(=O)NC(c1cccs1)c1cc([N+](=O)[O-])c2cccnc2c1O` (configuration not stated) in the list: Vaccinia mCherry = ?; VACV Venus inh = -26%
`Clc1ccc(CN2C3=NCCN3c3ccccc32)cc1` in the list: Vaccinia mCherry = .; VACV Venus inh = 11%
`O=C(N=Nc1c(O)[nH]c2ccccc12)c1ccc2c(c1)OCO2` in the list: Vaccinia mCherry = i; VACV Venus inh = -18%

Other structures:
Results follow in this order: Vaccinia mCherry, VACV Venus inh
- COC(=O)c1ccc(-c2csc(NC(=O)c3ccc(S(=O)(=O)N4CCc5ccccc5C4)cc3)n2)cc1
    i, -6%
- NC(=O)c1nc[nH]c1C(=O)Nc1cccc(C(F)(F)F)c1
    -27%, ?
- CCOc1cccc2sc(N3CCN(C(=O)C4CC4)CC3)nc12
    -2%, -11%
- O=C(Nc1ccc(N2CCOCC2)cc1)c1csc(COCCO)n1
    12%, -6%
- Cn1cc(S(=O)(=O)N2CCC(C(N)=O)CC2)c(=O)n(C)c1=O
    i, -2%
- O=C(NCc1nc2ccccc2[nH]1)c1cccs1
    -3%, -5%
- Cc1ccc(-c2noc(Cn3nc(C(=O)O)c4ccccc4c3=O)n2)cc1
    -12%, 0%
